# VDR inh – blocks the human vitamin D receptor; P11473; VDR-SRC2-3 peptide fluorescence polarization, 2 h; Potency, µM, for inactives: max response, negative = inhibition, most hits filed as inhibitors; actives 0.93% (n = 400,000); active = well fitted inhibition curve with a large enough effect; inconclusive = small, poorly fitted or top-dose-only effect, or another doubt; inactive = no such curve, though single readings can be large or run the other way; note: series mostly up to about 120 µM
# Target sequence (P11473 whole entry, looked up): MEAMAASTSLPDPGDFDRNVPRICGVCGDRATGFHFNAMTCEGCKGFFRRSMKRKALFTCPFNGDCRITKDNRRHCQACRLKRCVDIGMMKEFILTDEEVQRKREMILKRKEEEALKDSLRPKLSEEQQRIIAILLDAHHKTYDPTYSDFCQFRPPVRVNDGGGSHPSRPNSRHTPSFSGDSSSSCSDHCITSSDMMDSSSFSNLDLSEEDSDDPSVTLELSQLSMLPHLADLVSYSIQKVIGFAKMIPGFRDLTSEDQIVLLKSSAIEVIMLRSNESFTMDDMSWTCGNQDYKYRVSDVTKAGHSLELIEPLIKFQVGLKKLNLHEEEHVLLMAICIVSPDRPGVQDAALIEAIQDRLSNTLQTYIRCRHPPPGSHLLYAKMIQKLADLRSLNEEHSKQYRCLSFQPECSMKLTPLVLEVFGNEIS
#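 Inhibition of the VDR/SRC2-3 peptide interaction is quantified by fluorescence polarization. Compounds (23 nl, pintool) incubate with the reagents for 2 hours at ambient room temperature.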
# An asterisk follows results filed as active; ? = inconclusive; & = joins results of further samples. % is set by controls: 0 for no effect and ±100 for the full control effect; potency is the fitted concentration of half-maximal effect. Not all compounds are listed; count on the stated rates, not on these rows.
SMILES,VDR inh
O=C(Oc1ccccc1N1C(=O)C2CCCCC2C1=O)c1ccccc1F (stereo not given),5%
CCCCN(C(=O)c1cccc(S(=O)(=O)N2CCOCC2)c1)c1c(N)n(CCC)c(=O)[nH]c1=O,-10%
CCN(CC(=O)Nc1c(F)cccc1F)C(=O)CSCC(=O)Nc1cccc(C)c1,-16%
CC(=O)Nc1ccc(S(=O)(=O)N2c3ccccc3C(C)=CC2(C)C)cc1,10%
Cc1ccc(C)c(NC(=O)CN(C)C(=O)COc2cccc3c2OC(C)(C)C3)c1,-6%
CCOC(=O)C1=C(N)N(c2ccc(C)cc2)C2=C(C(=O)CCC2)C1c1cccs1 (stereo not given),6%
Cc1ccc(C2=CC(c3cccs3)n3nnnc3N2)cc1 (stereo not given),2%
O=C(O)c1cc(S(=O)(=O)N2CCCCCC2)ccc1Cl,6%
CC(=O)N/C(=C/c1ccc2c(c1)OCO2)C(=O)N1CCOCC1,-16%
O=S(=O)(NNC(=S)NCC1CCCO1)c1cc(Cl)ccc1Cl (stereo not given),-25%
C/C(=N\NC(=O)c1csc2ccccc12)c1ccc(O)cc1,2%
CCCCn1c(SCC(=O)NCc2cccs2)nc2c1c(=O)n(C)c(=O)n2C,16%
COc1ccc2oc(=O)c(/C(N)=N/NC(=O)c3ccncc3)cc2c1,-23%
COc1ccccc1C(=O)N1c2ccccc2Sc2ccccc21,5%
O=S(=O)(c1ccccc1)N(c1ccccc1)S(=O)(=O)c1ccccc1,-3%
CCOC(=O)N1CCC2(CC1)C(C#N)=C(N)OC1=C2C(=O)CCC1,-12%
CCOC(=O)c1ccc(Oc2nc(SC)nc(N(C)C)n2)cc1,8%
COc1ccc2[nH]c(C(=O)N3CCC(CO)(Cc4cccc(C(F)(F)F)c4)CC3)c(C)c2c1,-15%
CCO[C@H]1OC(C(N)=O)=C[C@@H](C2CCCCC2)[C@@H]1CCCO,-4%
COc1cc(C2Nc3c(C)cc(C)cc3-c3cc(C)nn32)cc(OC)c1O (stereo not given),-17%
O=C(/C=C/c1ccc(S(=O)(=O)N2CCOCC2)cc1)N1CCN(c2ccc(F)cc2)CC1,7%
COC(=O)Nc1nc2c(s1)CCCC2,-10%
O=C(Nc1cccc(S(=O)(=O)NC2=NCCCCC2)c1)C1COc2ccccc2O1 (stereo not given),17%
Oc1cncc(Cc2ccccc2)c1,9%
COc1cc(C(C(=O)NC2CCCCC2)N(Cc2cccs2)C(=O)Cc2c[nH]c3ccccc23)cc(OC)c1OC (stereo not given),4%
CCCCn1c(C)nc2cc(S(=O)(=O)N3CCOCC3)ccc21,-5%
COc1ccc(C(O)(CCc2ccccc2)CCN2CCCCC2)cc1 (stereo not given),-6%
CCc1nnc(NC(=O)C(C)C)s1,-5%
Cc1ccc(NC(=O)c2ccc(F)cc2F)cc1NS(C)(=O)=O,-10%
Cc1ccc(C(=O)NNC(=O)c2cc(C)nc3ccccc23)cc1,8%
CSCCC(NC(=O)c1ccc(Cl)cc1Cl)C(=O)NNC(=O)c1csc(N2CCOCC2)n1 (stereo not given),-25%
COC(OC)c1ccnc(SCc2ccccc2Cl)n1,-12%
O=C(O)CSc1nnc(NC(=O)c2ccc3c(c2)OCO3)s1,-12%
COc1ccccc1N1C(=O)c2cccnc2C1=O,-16%
O=C(CSc1nccc(=O)[nH]1)Nc1cccc2ccccc12,-9%
CSCCC(NS(=O)(=O)c1ccc2c(c1)oc(=O)n2C)C(=O)NCc1ccc(C)cc1 (stereo not given),0%
CCCCn1c(SCC(=O)NNC(=O)c2ccco2)nnc1-c1ccco1,2%
COc1ccc(OC)c(NC(=O)Cn2cccc2)c1,17%
CCCCN(C)C(=O)Cn1c(SCC(=O)Nc2ccc(C)c(C)c2)nc2ccccc21,-12%
Cc1ccc(C(C)NC(=O)c2cccs2)cc1 (stereo not given),-14%
CCOC(=O)CN=C(NS(=O)(=O)c1ccc(Cl)cc1)c1ccccc1,17%
CC(=O)NC1=NC(=O)/C(=C/c2cc(C)n(-c3ccc(NC(C)=O)cc3)c2C)S1,4%
CCN(CC)CCCNC(=O)Cn1nc([N+](=O)[O-])c(Cl)c1C,1%
CN(CC(=O)Nc1ccccc1Cl)C(=O)CSc1nnc(-c2ccco2)o1,5%
CNC(=S)Nc1cccc([N+](=O)[O-])c1,-2%
O=C(Nc1ccccc1)Nc1ccc(C(=O)N2CCCC2)cc1,22%
Cc1cccc(NC(=O)C(C)Oc2ccccc2C)n1 (stereo not given),4%
O=C(O)C1[C@H]2C(=O)N(C3CCCC3)C[C@]23C=C[C@H]1O3 (stereo not given in full),-9%
COc1cccc(NC(=O)CSc2nc(O)c(C)c(=O)n2-c2ccc(C)cc2)c1,?
CC(C)(C)C(=O)N1CCN(c2ccnc3cc(Cl)ccc23)CC1,-5%
CC(C)(C)NC(=O)[C@@H]1CN(Cc2cccnc2)CCN1C[C@@H](O)C[C@@H](Cc1ccccc1)C(=O)N[C@H]1c2ccccc2C[C@H]1O,-4%
COc1ccc(NC(=O)C2CCCN(S(=O)(=O)c3c(C)[nH]c(=O)[nH]c3=O)C2)cc1 (stereo not given),0%&22%
C[C@H](CO)N1C[C@H](C)[C@@H](CN(C)C(=O)NC2CCCCC2)Oc2ccc(NS(=O)(=O)c3cn(C)cn3)cc2C1=O,-21%
Nc1ccc(-c2nc(-c3ccccc3)nc3ccccc23)cc1,10%
COc1ccc(-c2c(C#N)c(SCC(=O)Nc3ccccc3C)nc(C)c2C(=O)Nc2ccccc2)cc1OC,-16%
O=C(Nc1cccnc1)Nc1cc(Cl)cc(Cl)c1,-3%
CCN1C(=O)/C(=C\c2cccc(OC(=O)c3ccco3)c2)SC1=S,-11%
O=C(NC1CC1)C(Cc1ccccc1)NS(=O)(=O)c1ccccc1F (stereo not given),-26%
CCSc1nc2c([nH]c3ccccc32)c(=O)n1-c1ccc(OC)cc1,9%
O=C(O)c1cccc(NC(=O)c2ccccc2NC(=O)c2ccccc2F)c1,-23%

# New compounds follow:
SMILES,VDR inh
NNC(=O)c1cc2ccccc2cc1NS(=O)(=O)c1ccccc1,-15%
COc1ccc(C2C3=C(CC(C)(C)CC3=O)Oc3ncn(CCCn4ccnc4)c(=N)c32)cc1 (stereo not given),-7%
CCn1c(=O)cc(N2CCC3(CC2)OCCO3)[nH]c1=O,-15%
O=C(Nc1nnc(-c2ccc(F)cc2)o1)c1cc(Cl)sc1Cl,8%
CC(C)C(=O)NC(Nc1cccc2cccnc12)C(Cl)(Cl)Cl (stereo not given),-12%
O=C(c1ccccc1Nc1ccc(SC(F)F)cc1)N1CCCCCC1,18%
CN(C)CCNC(=O)C1CCN(S(=O)(=O)c2ccc3ccccc3c2)CC1,12%
Clc1cccc(-n2ncc3c(NCCCN4CCOCC4)ncnc32)c1,12%
CCOc1ccnc(OCC)c1Br,-17%
COc1cc(CCC(=O)Nc2cc(Cl)ccc2N2CCN(C)CC2)cc(OC)c1OC,5%
CC(Sc1nc2cc(Cl)ccc2s1)C(=O)Nc1ccc2c(c1)OCO2 (stereo not given),3%
C[C@@]12CCC3[C@@](CCC4[C@@]3(C)CCC[C@@]4(C)C(=O)Nc3ccc(Cl)cc3)(CC1=O)C2 (stereo not given in full),-10%
CC(=O)N1CCCc2cc(S(=O)(=O)N3CCCC(C(=O)NC(C)C)C3)ccc21 (stereo not given),9%
O=C1OC(N2CCN(C/C=C/c3ccccc3)CC2)c2ccccc21 (stereo not given),4%
O=C(COc1ccc2c3c(c(=O)oc2c1)CCC3)NCc1ccccn1,-12%

# Shown bar-delimited: 21 of the compounds above
SMILES | VDR inh
COc1ccc(-c2c(C#N)c(SCC(=O)Nc3ccccc3C)nc(C)c2C(=O)Nc2ccccc2)cc1OC | -16%
O=C(Nc1cccnc1)Nc1cc(Cl)cc(Cl)c1 | -3%
CCN1C(=O)/C(=C\c2cccc(OC(=O)c3ccco3)c2)SC1=S | -11%
O=C(NC1CC1)C(Cc1ccccc1)NS(=O)(=O)c1ccccc1F (stereo not given) | -26%
CCSc1nc2c([nH]c3ccccc32)c(=O)n1-c1ccc(OC)cc1 | 9%
O=C(O)c1cccc(NC(=O)c2ccccc2NC(=O)c2ccccc2F)c1 | -23%
NNC(=O)c1cc2ccccc2cc1NS(=O)(=O)c1ccccc1 | -15%
COc1ccc(C2C3=C(CC(C)(C)CC3=O)Oc3ncn(CCCn4ccnc4)c(=N)c32)cc1 (stereo not given) | -7%
CCn1c(=O)cc(N2CCC3(CC2)OCCO3)[nH]c1=O | -15%
O=C(Nc1nnc(-c2ccc(F)cc2)o1)c1cc(Cl)sc1Cl | 8%
CC(C)C(=O)NC(Nc1cccc2cccnc12)C(Cl)(Cl)Cl (stereo not given) | -12%
O=C(c1ccccc1Nc1ccc(SC(F)F)cc1)N1CCCCCC1 | 18%
CN(C)CCNC(=O)C1CCN(S(=O)(=O)c2ccc3ccccc3c2)CC1 | 12%
Clc1cccc(-n2ncc3c(NCCCN4CCOCC4)ncnc32)c1 | 12%
CCOc1ccnc(OCC)c1Br | -17%
COc1cc(CCC(=O)Nc2cc(Cl)ccc2N2CCN(C)CC2)cc(OC)c1OC | 5%
CC(Sc1nc2cc(Cl)ccc2s1)C(=O)Nc1ccc2c(c1)OCO2 (stereo not given) | 3%
C[C@@]12CCC3[C@@](CCC4[C@@]3(C)CCC[C@@]4(C)C(=O)Nc3ccc(Cl)cc3)(CC1=O)C2 (stereo not given in full) | -10%
CC(=O)N1CCCc2cc(S(=O)(=O)N3CCCC(C(=O)NC(C)C)C3)ccc21 (stereo not given) | 9%
O=C1OC(N2CCN(C/C=C/c3ccccc3)CC2)c2ccccc21 (stereo not given) | 4%
O=C(COc1ccc2c3c(c(=O)oc2c1)CCC3)NCc1ccccn1 | -12%

# Continuation.
SMILES,VDR inh
O=c1ccc(-c2ccc(S(=O)(=O)N3CCCCC3)o2)n[nH]1,-6%
CC(C)N(C)C1=CC(=O)C(N(C)C(C)C)=CC1=O,-21%
CCCCN(CCCC)C(=O)c1cn(CC)c2cc(N3CCN(C)CC3)c(F)cc2c1=O,-8%
Cc1cc(NC(=O)CSc2ncc(C(=O)Nc3ccc(Cl)cc3)c(=O)n2C)no1,4%
Cn1c(=O)c2c(nc(CN3CCN(Cc4ccccc4)CC3)n2Cc2cccc(Cl)c2)n(C)c1=O,-12%
CCOC(=O)C1CCN(C(=O)c2ccc(OCC(=O)Nc3cccc(C(F)(F)F)c3)cc2)CC1,0%
CCN(CC)c1ccc(/C=C2\C(=O)c3ccc(C(=O)O)cc3C2=O)cc1,-20%
COCCNC(=O)c1onc(CSc2ccc(F)c(F)c2)c1C(=O)O,4%
O=C(O)c1ccc(Sc2nnc3ccccn23)c([N+](=O)[O-])c1,-12%
COc1ccc(CCNC(=O)c2ccc(CNS(=O)(=O)c3ccccc3)cc2)cc1OC,-9%&3%
COc1ccccc1NC(=O)c1nc[nH]c1C(=O)Nc1ccccc1OC,2%
O=C(NC1CCCCC1)c1ccc(CSc2nc3ccncc3n2Cc2ccccc2F)cc1,6%
O=C1OC(N2CCN(c3ccccn3)CC2)c2ccccc21 (stereo not given),-12%
Cc1cc(C)c(C#N)c(Nc2cccc(Br)c2)n1,-6%
CCn1cc(C(=O)N2CCN(c3ccccc3)CC2)c(=O)c2cc(S(=O)(=O)N3CCOCC3)ccc21,-6%&10%
CC12CC(NC(=O)N1c1cccc(C(=O)N3CCN(c4ccccn4)CC3)c1)c1ccccc1O2 (stereo not given),0%
C[C@H]1C=C(C(=O)NC2CC2)O[C@@H](OCc2ccc(CO)cc2)C1,3%
O=C(O)/C=C/C(=O)NCCc1cccc(Cl)c1,11%
CSc1cccc(NC(=O)C2CCN(C(=O)c3ccccc3C)CC2)c1,-6%
C[N+]1(CC(=O)OC2CCCCCCCCCCC2)CCCC1,-19%
COC(=O)CC1SC(=O)NC1=Nc1ccc(O)cc1 (stereo not given),10%
COc1ccc(C(=O)N=c2nc3ccccn3s2)cc1,0%
CC[C@H](C)[C@H](N)C(=O)N[C@H]1CCC(=O)NCC(C(=O)N[C@@H](Cc2ccc(O)cc2)C(=O)N[C@@H](CCCNC(=N)N)C(=O)N[C@@H](CC(C)C)C(=O)N[C@@H](CCCNC(=N)N)C(=O)N[C@@H](Cc2ccc(O)cc2)C(N)=O)NC(=O)[C@@H]2CCCN2C(=O)[C@@H](NC(=O)[C@@H](N)[C@@H](C)CC)CCC(=O)NCC(C(=O)N[C@@H](Cc2ccc(O)cc2)C(=O)N[C@@H](CCCNC(=N)N)C(=O)N[C@@H](CC(C)C)C(=O)N[C@@H](CCCNC(=N)N)C(=O)N[C@@H](Cc2ccc(O)cc2)C(N)=O)NC(=O)[C@@H]2CCCN2C1=O (stereo not given in full),10%
CCOc1ccc(S(N)(=O)=O)cc1-c1nc2c(C(C)(C)C)nn(C)c2c(=O)[nH]1,6%
COc1ccc(S(=O)(=O)Nc2ccc(S(=O)(=O)N3CCOCC3)cc2)cc1C,4%
COc1cc(C(=O)O[C@@H]2CC3CC[C@]2(C)C3(C)C)ccc1O,0%
Cc1ccc(C)c(CN2C(=O)c3ccccc3S(=O)(=O)c3ccc(C(=O)N4CCc5ccccc54)cc32)c1,-18%
O=C(Nc1ccncc1)C1CCN(S(=O)(=O)c2ccc(Cl)cc2)CC1,11%
COC(=O)c1nc2cc3c(cc2c(C)c1C(=O)OC)OCO3,-8%
COc1ccc(CNC(=O)Nc2cc(C)ccc2C)cc1,4%
Cn1c(N)c(C(=O)COC(=O)c2ccc3c(c2)OCCO3)c(=O)n(C)c1=O,-17%
COC(=O)c1ccc(NC(=S)NN2CCOCC2)cc1,9%
O=c1oc2ccccc2cc1-c1nnc(NCc2ccco2)s1,1%
CCOC(=O)C1=C(OCc2ccc(Cl)cc2)C2C=C(C)C=CC2N=C1 (stereo not given),12%
O=C(CN1CCN(c2ccc(O)cc2)CC1)Nc1ccccc1C(=O)NCCc1ccccc1,-3%
Cc1cc(NC(=O)c2c(Cl)c(C)nn2C)no1,7%
CCC(C)(C)NC(=O)C(c1ccc(OC)cc1)N(C(=O)CCC(=O)Nc1cc(C)on1)c1ccc(OC)c(OC)c1 (stereo not given),-12%
